Screens deposited in PubChem by National Center for Advancing Translational Sciences (NCATS).
gsp antagonist: qHTS for Antagonists of gsp, the Etiologic Mutation Responsible for Fibrous Dysplasia/McCune-Albright Syndrome: qHTS; gsp-mutant cells, cAMP HTRF, 30 min; control for the full effect not named in the record; Potency, µM (titrated, usually from 76.9 µM), for the others: at the highest dose activity change, negative = inhibition, most hits filed as inhibitors; hit rate 0.4% among 340,000; AID 624288, 2012; active = falling curve of any shape with a large fitted effect; inconclusive = falling curve, mostly with a smaller effect; inactive = flat or rising curve; cell line not stated here;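 note: intracellular cAMP measured with PDE inhibitor Ro 20-1724 present during compound exposure; potency is the fitted concentration of half-maximal effect; % is set by controls: 0 for no effect and ±100 for the full control effect; nearly all actives have a fitted effect of over 65% in size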
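Cells in G418 medium, seeded 16-24 h, 37C; buffer exchange to DPBS + 1 mM CaCl2, 0.5 mM MgCl2, 0.05% BSA; cpds in DMSO + […] (300 uM stock), 30 min 37C; HTRF cAMP detection.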
Sfp inh: qHTS Assay for Inhibitors of Bacillus subtilis Sfp phosphopantetheinyl transferase (PPTase). Potency, µM, without a hit: max response, negative = inhibition, most hits filed as inhibitors. Biochemical Sfp PPTase activity, qHTS. hit rate 3.5% among 310,000; active = well fitted inhibition curve with a large enough effect; inconclusive = small, poorly fitted or top-dose-only effect, or another doubt; inactive = no such curve, though single readings can be large or run the other way;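 note: the enzyme is Sfp with the accession as filed and its product quenches rhodamine fluorescence; potency is the fitted concentration of half-maximal effect; 0% = enzyme reaction without inhibitor and -100% = no enzyme wells; top concentration of the series not given in the record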
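Step 1, compound plus 15 nM Sfp-PPTase, 15 min, room temperature. Step 2, add rhodamine-CoA (5 uM) and BHQ-2-YbbR (12.5 uM). Step 3, read 525/598 nm fluorescence at 0 and 30 min.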
Menin MLL FP FL: qHTS Assay for Inhibitors Targeting the Menin-MLL Interaction in MLL Related Leukemias: Competition With Fluorescein Labeled MLL-derived Peptide. Fluorescence polarization, fluorescein-MLL peptide displacement from menin. FP activity change, % at 61.4 µM. 290,000 tested, under 10 active; inconclusive = falling polarisation curve, or a change in total fluorescence; inactive = total fluorescence flat and polarisation flat or rising; no compound was filed as active; the % refers to the polarisation; negative = inhibition;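 note: % of control where 0% means no effect; inhibitors lower the polarisation; unlabelled MLL peptide was the positive control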
gsp agonist: qHTS for Agonist of gsp, the Etiologic Mutation Responsible for Fibrous Dysplasia/McCune-Albright Syndrome: qHTS; gsp mutant cells, cAMP HTRF, 30 min; control for the full effect not named in the record; Potency, µM (titrated, usually from 76.9 µM), for inactives: at the highest dose activation (cAMP increase), hits mostly activators; hit rate 0.13% among 340,000; active = well fitted activation curve with a large enough effect; inconclusive = small, poorly fitted or top-dose-only effect, or another doubt; inactive = no such curve, though single readings can be large or run the other way; cell line not stated here;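 note: phosphodiesterase inhibitor Ro 20-1724 added with compounds to block cAMP breakdown; potency is the fitted concentration of half-maximal effect; nearly all actives have a fitted effect of over 60% in size; about a fifth of the inactives were tested at one dose only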
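Cells in DMEM/10% FBS with G418 were pretreated with compounds in DMSO plus […] (300 uM stock) for 30 min at 37C. cAMP was measured by HTRF (cAMP-d2 plus anti-cAMP antibody-K) after 30 min at room temperature.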
D2 PAM: Beta-Arrestin HTS for Positive Allosteric Modulators of the Human D2 Dopamine Receptor: Potentiators; D(2) dopamine receptor (Homo sapiens), P14416; hit rate 0.23% among 360,000; DiscoveRx D2 beta-arrestin cells, luminescence, 90 min; 100% = 57 uM dopamine signal; potentiation, % (concentration not given with the values); active = potentiation of 50% or more; inconclusive = 30% to 50%; inactive = 30% or less;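 note: compound concentration not given in the record; tested on top of an EC20 dose of dopamine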
Target sequence (P14416 whole entry, looked up): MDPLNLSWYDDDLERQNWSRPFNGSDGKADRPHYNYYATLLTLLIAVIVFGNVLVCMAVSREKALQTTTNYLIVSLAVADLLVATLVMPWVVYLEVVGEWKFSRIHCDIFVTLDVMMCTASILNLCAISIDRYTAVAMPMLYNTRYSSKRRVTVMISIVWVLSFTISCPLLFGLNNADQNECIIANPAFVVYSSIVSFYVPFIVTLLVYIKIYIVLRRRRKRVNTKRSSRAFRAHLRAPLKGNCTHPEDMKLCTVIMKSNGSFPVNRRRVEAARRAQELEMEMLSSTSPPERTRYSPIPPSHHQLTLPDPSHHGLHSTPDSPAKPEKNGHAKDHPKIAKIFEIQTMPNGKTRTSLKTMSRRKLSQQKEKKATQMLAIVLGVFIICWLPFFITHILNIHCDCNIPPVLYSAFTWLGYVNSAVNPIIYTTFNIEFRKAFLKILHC
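PathHunter D2 cells, attached overnight at 37 deg C, received compound in DMSO plus dopamine at EC20 (50 nM final) for 90 min at 37 deg C. Beta-arrestin recruitment was read as luminescence after 1 h with detection reagent at ambient temperature.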
TRPV1 PAM: HTS Assay for Compounds that Act as Potentiators of the Vanilloid Receptor 1 | hit rate 0.02% among 320,000 | potentiation, % at 8.33 µM | TRPV1-expressing cells, Fluo-8 calcium influx, capsaicin EC20 potentiation; host cell line not named in the record; control for the full effect not named in the record; active means potentiation above 80%; inconclusive means 30% to 80%; inactive means below 30%; note: 0% is about no effect
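TRPV1-expressing cells were cultured overnight at 35.5C and loaded with Fluo-8 calcium dye for 40 to 90 min at room temperature. After a 10 s baseline, compound was added and calcium influx was read kinetically for 3 min (ex 480/em 520 nm).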
ClpP mod: qHTS Assay for Activators of ClpP. ATP-dependent Clp protease proteolytic subunit (Bacillus subtilis (strain 168)), P80244. purified B. subtilis ClpP, FRET peptide cleavage, 20 min. Potency, µM (doses to about 57.5 µM), for inactives: at the highest dose activity change, negative = active. hit rate 1.9% among 340,000; active = well fitted falling curve with a large enough effect; inconclusive = small, poorly fitted or top-dose-only effect; inactive = no such curve, though single readings can be large or run the other way; note: potency is the fitted concentration of half-maximal effect; the source files actives as falling curves though it sought activators and does not explain the sign; nearly all actives have a fitted effect of over 65% in size; many hits overshoot -100%
Target sequence (P80244 whole entry, looked up): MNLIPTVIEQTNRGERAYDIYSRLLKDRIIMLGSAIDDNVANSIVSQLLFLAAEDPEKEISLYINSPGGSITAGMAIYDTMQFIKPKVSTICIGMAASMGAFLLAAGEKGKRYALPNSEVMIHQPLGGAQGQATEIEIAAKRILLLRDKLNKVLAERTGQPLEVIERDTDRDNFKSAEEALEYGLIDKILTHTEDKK
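FRET quenching reversal measured ClpP activation: 10 microg/mL B. subtilis ClpP at pH 8 with the FRET-FV decapeptide, read at 430 nm after 320 nm excitation. The 20-min minus 0-min signal was scaled between DMSO/no-enzyme wells and ADEP (5.8 microM final).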
* hit, by the source's call; ? = inconclusive; nt = not tested or not shown; & = joins results of further samples; [ ] = another dose, or the depositor's remark.

SMILES	gsp antagonist	Sfp inh	Menin MLL FP FL	gsp agonist	D2 PAM	TRPV1 PAM	ClpP mod
Cc1ccc(NC(=O)CCNS(=O)(=O)c2ccc3[nH]c(=O)oc3c2)cc1F	13%	20%	-5.7	-5%	-3	9	nt
CCOC(=O)c1ccc(NC(=O)Nc2ccc(OC)c(OC)c2)cc1	?	11%	4.6	8%	1	-9	8.5%
CCCS(=O)(=O)c1nc(S(=O)(=O)c2ccc(C)cc2)c(N2CCCC(C)C2)s1 (stereo not given)	-9%	0%	nt	16%	-8	-10	1.3%
Nc1ncnc(SCc2c(F)cccc2Cl)n1	5%	12%	1.7	-19%	-15	-1	0.4%
Cn1c(=O)c2c(nc(N3CCNCC3)n2Cc2ccccc2Cl)n(C)c1=O	5%	-8%	3.3	0%[15.4 µM]	0	15	nt
CCn1cc(/C=C(\NC(=O)c2cc(OC)c(OC)c(OC)c2)C(=O)NCCCN2CCOCC2)c2ccccc21	-2%	5%	2.0	-48%[inhibitor]	-22	0	-1.2%
CCN(CC)C(=O)N1CCN(C(=O)N(CC)CC)CC1	-14%	16%	-3.7	-1%[15.4 µM]	0	16	nt
CCC(=O)Nc1ccc2oc(-c3cccc(C)c3)nc2c1	2%	2%	4.2	9%	2	nt	0.8%
Cc1onc(-c2c(Cl)cccc2Cl)c1COC(=O)c1ccc(Cl)cc1[N+](=O)[O-]	-13%	2%	2.9	12%	0	nt	nt
O=S(=O)(/N=C(/Sc1ccccc1)c1ccccc1)c1ccccc1	1%	-26%	1.6	-8%	0	20	-1.5%
CCC(C)(C)N1CC(=O)N(Cc2ccccc2)C(c2ccc(OC)cc2)C1=O (stereo not given)	-6%	13%	-1.5	-26%	-12	-16	-2.6%
Cc1nc2ccccc2c2oc(C(=O)NCCN3CCN(C)CC3)cc12	10%	-2%	4.1	7%	-4	nt	-14%
COc1ccc(-c2noc(CCCc3ccccc3)n2)cc1OC	-14%	-5%	-2.4	?	12	-9	-1.9%
CC1CCN(C(=O)c2ccc(CNc3c(N4CCCC4)c(=O)c3=O)cc2)CC1	-4%	9%	3.1	-9%[15.4 µM]	-2	19	nt
CCN(CC(=O)NCc1ccc(Cl)cc1)C(=O)CCC(=O)c1ccc(C)cc1	-1%	nt	nt	1%	-15	-17	-14%
COc1ccccc1OCCOc1ccc(/C=C2\C(=N)N3N=C(S(C)(=O)=O)SC3=NC2=O)cc1	?	-6%	-3.2	-9%	-6	8	4.1%
O=C(COC(=O)C1CCN(C(=O)c2ccc(Cl)cc2)CC1)c1ccco1	15%	9%	-0.8	-6%	10	-1	0.0%
CC1=C(C(=O)Nc2ccc(C(=O)N3CCN(c4ccccc4F)CC3)cc2)SCCO1	-21%	8%	nt	1%	-8	2	0.0%
O=C(CN1CCN(C(C(=O)Nc2ccc(Cl)cc2C(F)(F)F)c2ccccc2)CC1)NC1CC1 (stereo not given)	-2%	nt	nt	-33%[inhibitor]	1	-20	0.8%
Cc1c(CC(=O)O)c(=O)oc2c(C)c3occ(-c4ccc(F)cc4)c3cc12	?	35µM*	9.4	-2%	4	-9	nt
CN(C(=O)COC(=O)c1ccc2ccccc2n1)C1CCCCC1	4%	nt	nt	-1%[15.4 µM]	-27	nt	-1.4%
Cc1ccsc1C(=O)C1CCCN(Cc2cn(C)nc2-c2ccccc2)C1 (stereo not given)	7%	12%	-6.2	-33%[inhibitor]	-15	-7	nt
Cc1noc(C(=O)Nc2cc(Cl)ccc2O)c1Cl	-10%	6%	1.2	3%	-3	-9	nt
Cc1cc2[nH]c(=O)c(=O)[nH]c2cc1S(=O)(=O)N1CCN(c2cccc(C(F)(F)F)c2)CC1	0%	8%	-2.2	23%	-6	14	?
O=C(N/N=C/c1cc(Br)cc(Br)c1O)c1cccc(N2CCCC2=O)c1	-17%	9%	?	-3%	-5	14	nt
O=C(NCc1ccco1)c1cc(=O)c2ccccc2o1	7%	5%	-1.8	5%	-6	8	nt
O=C(Cn1ccc([N+](=O)[O-])n1)NCc1cccnc1	7%	19%	0.2	20%[15.4 µM]	-6	4	nt
NS(=O)(=O)c1ccc(NC(=O)CCC(=O)c2cccs2)cc1	8%	1%	-5.1	16%	-11	?	-3.9%
O=C(OCCc1cc2ccccc2c(=O)o1)N1CCOCC1	4%	nt	nt	nt	-4	4	-9.0%
CCOC(=O)N1CCN(C(=O)CS(=O)(=O)Cc2nc(-c3ccccc3C)oc2C)CC1	-7%	26%	0.5	-21%	-13	0	-7.0%
Cc1cc(C)n2cc(CSCc3ccccc3)nc2n1	3%	-22%	-1.0	?	-1	-4	3.9%
O=C(Nc1ccc(F)cc1)N(CCCN1CCOCC1)Cc1cc2cc3c(cc2[nH]c1=O)OCCO3	0%	-10%	0.7	0%	-2	8	25µM*
OC[C@H]1O[C@@H](Oc2ccc3cc(Br)ccc3c2)[C@H](O)[C@@H](O)[C@H]1O	22%	nt	nt	45%	-4	-10	0.8%
O=C(NC1CCCCC1)C(c1ccc(Cl)cc1)N(C(=O)c1cnccn1)c1ccc2c(c1)OCO2 (stereo not given)	-8%	9%	3.1	-11%	-12	13	-0.6%
Nc1ccc(O)c([N+](=O)[O-])c1	-14%	nt	nt	nt	7	14	0.0%
CCCCCCN1C[C@@H](O)[C@H](n2cc(C3CC3)nn2)C[C@@H]1c1ccc(C)cc1	nt	nt	nt	-11%	-6	nt	0.7%
COc1ccc(S(=O)(=O)N2CCN(CC(=O)Nc3cccc(OC)c3)CC2)cc1	-15%	5%	nt	2%	-10	-3	0.9%
Clc1cccc(CN2COc3c(cc(Cl)c4cccnc34)C2)c1	nt	-3%	3.7	nt	nt	1	nt
CC(Sc1ccc(Cl)cc1)C(=O)NCC(c1ccco1)N1CCCCC1 (stereo not given)	-1%	nt	nt	-31%[inhibitor]	-25	-9	-4.5%
O=C(Nc1nnc(-c2ccc(Cl)cc2)o1)C1=COCCO1	5%	17%	2.4	-6%	-4	7	-2.7%
COc1cc(OC)cc(C(=O)Nc2cccc(NC(=O)c3cccs3)c2)c1	nt	nt	nt	?	-1	nt	-1.7%
O=C(NNc1nc2ccc(F)cc2s1)c1cccc(F)c1	0%	-6%	-1.9	-44%	-20	-23	1.2%
CCC(=O)NCCNc1nc2cc(C)cc(C)c2cc1C#N	-1%	-10%	0.1	-3%	-1	-7	nt
C[C@@H]1CCCCO[C@H](CN(C)C(=O)Nc2ccc(F)cc2)[C@@H](C)CN([C@H](C)CO)C(=O)c2cc(NC(=O)c3ccccc3)ccc2O1	nt	nt	nt	-9%	-6	nt	-3.4%
CCOP(=O)(OCC)c1nc(-c2ccc(C)cc2)oc1NCc1ccccc1	-9%	-19%	nt	-18%[15.4 µM]	-4	-12	nt
Oc1ccc(Cl)cc1-c1cc(C(F)(F)C(F)F)nc(-c2ccccc2)n1	?	-6%	1.5	8%	-7	?	0.1%
O=C(OC(C(=O)NC1CCCC1)c1cccnc1)C1=Cc2ccccc2OC1 (stereo not given)	-2%	13%	-2.1	-1%	-12	-11	-2.1%
CC(c1ccco1)N(C(=O)c1ccc(Cl)s1)c1ccccn1 (stereo not given)	-20%	12%	0.7	3%	5	-10	0.8%
N#Cc1ccccc1OCC(=O)NNC(=O)c1ccncc1	1%	nt	nt	?	-3	5	-2.9%
O=C(NC1CCCCC1)NC1CCN(S(=O)(=O)Cc2ccccc2)CC1	1%	13%	6.0	-12%	1	10	-0.6%
COc1ccc(OCCC(=O)OCC(=O)Nc2ccc(S(=O)(=O)N3CCOCC3)cc2)cc1	1%	15%	-3.0	10%[15.4 µM]	4	2	-9.8%
CC(=O)c1cccc(NC(=O)N2CCCC2C(=O)NCc2ccc3c(c2)OCO3)c1 (stereo not given)	3%	16%	-4.7	-47%[inhibitor]	-2	-5	1.0%
CS/C(=N\S(=O)(=O)c1cccs1)Nc1ccc(N2CCOCC2)cc1	3%	-13%	-0.6	-23%&16%	-10&-5	-25	-1.2%&-0.3%
Cc1cc(C(=O)COC(=O)C2=COCCO2)c(C)n1-c1cccc(F)c1	6%	nt	nt	1%[15.4 µM]	-3	-21	nt
CCOc1ccc(Cl)cc1CNCCNCCO	5%	-6%	1.7	-23%	-24	-2	1.1%
O=C1NNC(c2ccccc2)=N/C1=C\c1ccccc1	-7%	3%	6.8	8%	-30	-29	-1.2%
Cc1ccc(-n2nnnc2SCC#N)cc1	5%	12%	3.1	1%[15.4 µM]	4	4	nt
COc1ccccc1NC(=O)CCC(=O)OCc1cccc([N+](=O)[O-])c1	19%	16%	-3.3	-2%[15.4 µM]	-6	10	nt
O=C(NNS(=O)(=O)c1ccccc1C(F)(F)F)c1cc2ncc(C(F)(F)F)cc2s1	?	11%	1.0	?	-5	9	nt
O=C(NCCN1CCOCC1)c1ccc(NS(=O)(=O)c2ccccc2)cc1	12%	4%	nt	-2%[15.4 µM]	7	1	2.3%
The results go on:
SMILES	gsp antagonist	Sfp inh	Menin MLL FP FL	gsp agonist	D2 PAM	TRPV1 PAM	ClpP mod
Cc1cc(=O)oc2cc(OCC(=O)N3CCCc4ccccc43)ccc12	2%	6%	-0.7	3%	-5	-9	?
COc1ccc(Cl)cc1NC(=O)CN(C)C(=O)c1cccc(-n2cnnn2)c1	3%	nt	nt	-81%[inhibitor]	1	7	-2.4%
CSC(=NS(=O)(=O)c1ccccc1)SC	-7%	16%	2.6	11%	9	-10	-3.0%
CN(C)CCN1C(=O)c2oc3ccccc3c(=O)c2C1c1cccc(Br)c1 (stereo not given)	7%	-11%	2.0	17%	-11	-3	-1.1%
Cc1c(NC(=O)c2ccc(-c3ccccc3)cc2)cccc1C(=O)O	-25%	20%	-0.2	12%	5	6	0.3%
CC(Cc1n[nH]c(=S)n1N)c1ccccc1 (stereo not given)	5%	56µM*	-9.0	-9%[15.4 µM]	-11	-2	-17%

Compounds as they come; 5.1% or so of the library scored in one or more.
